KCNQ2 inh: KCNQ2 channel blockers in CHO-K1 cells – cell-based, FluxOR thallium flux, B-score, primary screen (AID 2156); 20 min; hits give low values; only compounds with negative scores are shown here; some inactives read as strong as hits; actives 1.1% (n = 310,000); O88943; B-score at 10 µM;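 active means fluorescence ratio B-score at most minus 3 library SDs, with starting brightness B-score within 2 library SDs, cut at about -5.5 in these data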
Target sequence (O88943 whole entry, looked up): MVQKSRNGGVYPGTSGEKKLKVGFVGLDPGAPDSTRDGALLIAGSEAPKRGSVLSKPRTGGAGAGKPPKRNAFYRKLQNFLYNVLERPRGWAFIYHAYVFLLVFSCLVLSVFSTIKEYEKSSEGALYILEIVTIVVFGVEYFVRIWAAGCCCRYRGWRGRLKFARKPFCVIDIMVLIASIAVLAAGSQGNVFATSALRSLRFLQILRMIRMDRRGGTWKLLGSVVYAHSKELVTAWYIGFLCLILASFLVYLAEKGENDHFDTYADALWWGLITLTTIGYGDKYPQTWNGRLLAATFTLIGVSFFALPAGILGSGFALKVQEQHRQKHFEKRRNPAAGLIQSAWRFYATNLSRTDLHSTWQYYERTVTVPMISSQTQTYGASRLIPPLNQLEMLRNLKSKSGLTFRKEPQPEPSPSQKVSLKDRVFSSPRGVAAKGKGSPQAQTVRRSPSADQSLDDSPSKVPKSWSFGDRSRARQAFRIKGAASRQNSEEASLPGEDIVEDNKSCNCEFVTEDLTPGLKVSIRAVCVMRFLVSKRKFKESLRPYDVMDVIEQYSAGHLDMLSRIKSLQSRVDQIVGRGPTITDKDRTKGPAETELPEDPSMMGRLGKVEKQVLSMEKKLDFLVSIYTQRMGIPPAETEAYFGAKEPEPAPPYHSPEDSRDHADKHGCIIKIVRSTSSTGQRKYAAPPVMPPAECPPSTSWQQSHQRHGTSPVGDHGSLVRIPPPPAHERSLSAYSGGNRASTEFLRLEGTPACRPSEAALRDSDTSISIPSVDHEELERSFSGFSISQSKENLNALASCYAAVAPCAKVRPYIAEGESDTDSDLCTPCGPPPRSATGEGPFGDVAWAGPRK
KCNQ2 inh baseline: recorded beside KCNQ2 inh, whose call it bears; B-score; measured here: initial fluorescence intensity artifact check;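 brightness before thallium and not channel activity; 0 = typical well and far values either way flag optical interference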
An asterisk follows results filed as active; i = inactive. Not all compounds are listed, so the mix of outcomes need not match the whole.

KCNQ2 inh	KCNQ2 inh baseline	canonical_smiles
i	2.5	O=C(C1CCN(S(=O)(=O)c2cnc[nH]2)CC1)N(CCc1ccccc1)Cc1ccccc1
i	-0.76	C#CC(C)(CC)NC(=O)c1cc(OC)c(OC)c(OC)c1 (configuration not stated)
i	-0.13	CCOC(=O)c1nn(-c2ccc(F)cc2)c(=O)cc1OCC(=O)Nc1cccc(C)c1
i	4.2	COC(=O)N/N=C/c1cn(Cc2ccccc2Cl)c2ccccc12
i	0.6	CC(C(=O)O)n1nnc2ccccc21 (configuration not stated)
i	0.2	CCC(c1nnnn1Cc1ccco1)N(Cc1cc2cc(C)cc(C)c2[nH]c1=O)CC1CCCO1 (configuration not stated)
i	0.94	Cc1cc(C(=O)N2CCc3ccccc3C2)on1
i	0.19	Clc1ccccc1Cc1noc(CN2CCCCC2CCc2ccccn2)n1 (configuration not stated)
i	-0.46	O=C(CSc1ncn[nH]1)N1N=C2/C(=C/c3ccco3)CCCC2C1c1ccco1 (configuration not stated)
i	1.1	Nc1nnc(SCC(=O)OCC(=O)NC23CC4CC(CC(C4)C2)C3)s1
i	0.23	CCc1ccc(Nc2ccc(C(N)=O)cc2[N+](=O)[O-])cc1
i	0.1	Cn1c(COc2ccc(C(=O)O)cc2)nc2ccccc21
i	0.06	Cc1cc(OCC(=O)N(C)C)c2c(-c3ccccc3)cc(=O)oc2c1
i	-2.3	CCN(CC(=O)NCc1cccs1)C(=O)CCc1c[nH]c2ccccc12
i	-1.8	Cc1ccc(N2C(=O)CC(Sc3ccccc3C(=O)O)C2=O)c([N+](=O)[O-])c1 (configuration not stated)
i	-0.86	Cc1ccsc1C(=O)Nc1nccs1
i	-0.41	CCc1ccc(-c2nc(CCl)cs2)cc1
i	-0.49	C/C(=N\Nc1ccc(C)c(Cl)c1)c1ccncc1
i	-2.9	O=C(N/N=C/c1ccncc1)c1cccc(NC(=O)c2ccccc2Cl)c1
i	0.95	CCOc1ccc(CNC(c2ccccc2)c2ccccc2)cc1
i	1.6	O=C(CSCc1ccc(Cl)cc1)c1ccco1
i	-1.5	CN(c1ccc(C(=O)N2CCOCC2)cc1)S(=O)(=O)c1ccc(Cl)cc1
i	-0.04	CC(Oc1cccc(Cl)c1)C(=O)Nc1ccc(S(=O)(=O)NC2=NCCCCC2)cc1 (configuration not stated)
i	0.35	COCCN1CCN(C(=O)C2CCC(=O)N(CCCc3ccccc3)C2)CC1 (configuration not stated)
i	0.73	O=C(CSc1nnc(SCc2ccccc2)s1)N/N=C/c1ccc(C(=O)O)cc1

Quoted at random: three entries already listed
KCNQ2 inh	KCNQ2 inh baseline	canonical_smiles
i	0.06	Cc1cc(OCC(=O)N(C)C)c2c(-c3ccccc3)cc(=O)oc2c1
i	-1.8	Cc1ccc(N2C(=O)CC(Sc3ccccc3C(=O)O)C2=O)c([N+](=O)[O-])c1 (configuration not stated)
i	-0.49	C/C(=N\Nc1ccc(C)c(Cl)c1)c1ccncc1

Returning to the listing; the three compounds before the break are reprinted first.
KCNQ2 inh	KCNQ2 inh baseline	canonical_smiles
i	-0.04	CC(Oc1cccc(Cl)c1)C(=O)Nc1ccc(S(=O)(=O)NC2=NCCCCC2)cc1 (configuration not stated)
i	0.35	COCCN1CCN(C(=O)C2CCC(=O)N(CCCc3ccccc3)C2)CC1 (configuration not stated)
i	0.73	O=C(CSc1nnc(SCc2ccccc2)s1)N/N=C/c1ccc(C(=O)O)cc1
i	0.35	CC(Sc1n[nH]c(N)n1)c1nc2scc(-c3cccs3)c2c(=O)[nH]1 (configuration not stated)
i	-0.18	Cc1ccnc(NC(=O)c2ccc(Cl)c(NC(=O)CCc3ccccc3)c2)c1
i	-0.9	O=C(c1ccc(=O)[nH]c1)N(Cc1ccco1)C1(C(=O)NC2CCCC2)CCCCC1
i	-2.6	O=C(Cn1cnc2c(cnn2-c2ccccc2)c1=O)NC1CCCC1
i	0.15	COc1ccc(Cn2nnnc2CN(Cc2cc3cccc(C)c3[nH]c2=O)C2CCCC2)cc1
i	0.6	COCCNC(=O)c1ccc(NC(C)=O)cc1
i	0.49	CCOC(=O)c1c(C)nc2sc(C(=O)Nc3ccc(C(C)=O)cc3)c(N)c2c1-c1ccc(OC)cc1
i	1.6	N#CC1(C#N)CC(C=O)=C(N)C1(C#N)CC(=O)C12CC3CC(CC(C3)C1)C2 (configuration not stated)
i	0.28	CC(=O)Nc1ccc(C(=O)OCC(=O)NCc2ccc(Cl)cc2)cc1
i	0.12	CC1(C)CC(=O)c2c(noc2-c2ccccc2)C1
i	-0.08	COc1ccc(NC(=O)CSCC(=O)Nc2ccc(S(=O)(=O)N3CCCC3)cc2)cc1
i	-0.35	COCCCNC(=O)c1cc2c(s1)CS(=O)(=O)C2
i	-0.58	CCOC(=O)C1CCCN(C(=O)c2cccc3ccccc23)C1 (configuration not stated)
i	-0.12	CCc1nnc(NS(=O)(=O)c2ccc(NC(=O)/C=C/c3ccccc3Cl)cc2)s1
i	-0.95	Cc1ccc(C(=O)Nc2ccc3c(c2)nc(CCNC(=O)c2ccco2)n3C)cc1
i	1.2	CCOC(=O)N1CCN(C(=O)c2cccc(OC)c2OC)CC1
i	1.8	O=C(c1ccc(Cl)cc1)N1CCc2ccccc21
i	0.98	CC1CCCN(S(=O)(=O)c2ccc(C(=O)Nc3nnc(-c4ccccn4)o3)cc2)C1 (configuration not stated)
i	0.83	COc1ccc(S(=O)(=O)Nc2ncccn2)cc1
i	1.1	O=C(Cn1cc(C(F)(F)F)ccc1=O)Nc1cc(S(=O)(=O)N2CCOCC2)ccc1Cl
i	2	Cc1ccc(S(=O)(=O)NC(C)C(=O)NC2CC2)cc1 (configuration not stated)
i	2.7	O=C1C=C(NC2=CC3OC(c4ccccc4)OCC3OC2=O)CCC1 (configuration not stated)
i	1.8	CCC(C)[C@H](NC(=O)N1CCCCCC1)C(=O)O (some centres not stated)
i	0.68	CCSc1nc2c(cnn2-c2ccc(C)cc2)c(=O)[nH]1
i	-1.2	O=C(CCNS(=O)(=O)c1ccc2c(c1)CCC(=O)N2)Nc1ccc2c(c1)OCCO2

Structural class: the compounds so far with an aryl methoxy group.
KCNQ2 inh	KCNQ2 inh baseline	canonical_smiles
i	-0.76	C#CC(C)(CC)NC(=O)c1cc(OC)c(OC)c(OC)c1 (configuration not stated)
i	0.15	COc1ccc(Cn2nnnc2CN(Cc2cc3cccc(C)c3[nH]c2=O)C2CCCC2)cc1
i	0.49	CCOC(=O)c1c(C)nc2sc(C(=O)Nc3ccc(C(C)=O)cc3)c(N)c2c1-c1ccc(OC)cc1
i	-0.08	COc1ccc(NC(=O)CSCC(=O)Nc2ccc(S(=O)(=O)N3CCCC3)cc2)cc1
i	1.2	CCOC(=O)N1CCN(C(=O)c2cccc(OC)c2OC)CC1
i	0.83	COc1ccc(S(=O)(=O)Nc2ncccn2)cc1

The list goes on:
KCNQ2 inh	KCNQ2 inh baseline	canonical_smiles
i	-2.5	COc1ccc(OC)c(C(=O)c2ccc(C(=O)O)cc2)c1
i	-0.16	Cc1nc2ccc(Oc3ccccc3)cc2s1
i	1.7	COc1ccc(O)c(C(=O)c2cnn(C(=O)c3cccc(S(=O)(=O)N4CCOCC4)c3)c2)c1
i	0.7	O=C(NCCc1ccccc1)/C(=C\c1ccccc1)NC(=O)c1ccco1
i	1.7	COc1ccccc1CNC(=O)COC(=O)c1cc([N+](=O)[O-])ccc1N1CCOCC1
i	1.2	O=C(CCN1C(=O)C2C3C=CC(C3)C2C1=O)Nc1c(F)cc(F)cc1Br (configuration not stated)
i	-0.78	COCC(=O)Nc1nnc(Cc2ccc(OC)c(OC)c2)s1
i	0.87	COc1ccc(N(CC(=O)NC(C)c2ccccc2)S(=O)(=O)c2ccc(C)cc2)cc1 (configuration not stated)
i	2	CC(OC(=O)c1cccs1)C(=O)NCc1ccc2c(c1)OCO2 (configuration not stated)
i	0.73	C=CCn1c(SCC(=O)N(CCO)CCO)nc2sc3c(c2c1=O)CCC3
i	-0.57	COC(=O)C1=C(C)OC(N)=C(C#N)C1c1cc2cccc(C)c2nc1Cl (configuration not stated)
i	1.9	COC(=O)C(C)Oc1ccc2c(c1)O/C(=C\c1cccc(Br)c1)C2=O (configuration not stated)
i	0.67	Cc1ccc(N(CC(=O)NC(C)(C)C)C(=O)CS(=O)CC(=O)Nc2ccc(F)cc2)cc1 (configuration not stated)
i	-0.44	CC(=O)C(Sc1ncnc2c1nnn2-c1ccc(F)cc1)C(=O)N(C)C (configuration not stated)
i	-0.07	COc1cccc(CNc2nccs2)c1O
i	0.91	O=C(NCc1cccnc1)C1c2ccccc2C(=O)N1Cc1ccco1 (configuration not stated)
i	-0.14	Cc1occc1C(=O)NC1CCCN(Cc2ccc(CC(C)C)cc2)C1 (configuration not stated)
i	-2.4	O=C(O)c1cc(S(=O)(=O)Nc2cccc3ccccc23)c(Cl)cc1Cl
-6*	0.05*	Cc1nc(N2CCN(c3ccccn3)CC2)c2c(C)c(C(=O)Nc3ccc(Br)cc3C)sc2n1
i	1.3	O=c1cc(N2CCc3ccccc3C2)[nH]c(=O)n1-c1ccccc1Cl
i	0.28	C=CCOn1c(=O)c(=O)n(OCc2ccccc2)c2ccccc21
i	0.84	CCN(Cc1cnn(C)c1)C(=O)c1ccc2nc(Cc3cccc(Cl)c3)oc2c1
i	-0.29	O=C(NCCNc1ccc([N+](=O)[O-])cc1C(F)(F)F)c1ccccc1F
i	2.1	COCCN1C=C(C(=O)OC)C(c2ccc(OC)c(OC)c2)C(C(=O)OC)=C1
i	-1.4	CNS(=O)(=O)c1ccc2c3c(cccc13)C(=O)N2C
i	1.3	COc1ccc(CCNC(=O)CN(CCc2ccccc2)S(C)(=O)=O)cc1
i	-0.47	CCn1c(N2CCN(CC(=O)Nc3cccc(C)c3C)CC2)nc2ccccc21
i	-0.56	CCc1ccc(-c2cc(C(=O)NN3CCOCC3)c3ccccc3n2)cc1
i	-1.3	O=C(CSc1ccc(-c2cccnc2)nn1)Nc1ccccc1
i	1.1	C/C(Cn1cnc([N+](=O)[O-])n1)=N\NC(=O)c1ccc(Br)cc1
i	1.7	Cn1c(=O)oc2cc(S(=O)(=O)NCc3ccccn3)ccc21
i	-1.7	O=C(O)c1ccc2c(c1)C(=O)N(c1cccc(C(=O)/C=C/c3ccccc3)c1)C2=O
i	-0.21	Cc1ccc(NC(=S)NC(=O)/C=C/c2ccco2)c(O)c1
i	-0.67	CC(C)S(=O)(=O)CC(=O)c1ccc(Cl)cc1
i	3.6	CCOc1cc(/C=C2\N=C(SC(C)C(N)=O)N(c3ccc(OC(F)F)cc3)C2=O)ccc1O (configuration not stated)
i	-0.41	CC1CCN(CC(=O)N2c3ccccc3CCc3ccccc32)CC1
i	-1.2	Cc1ccc2nc(NC(=O)c3ccc4ncsc4c3)sc2c1
i	0.22	COc1cccc(C2NC(=O)c3ccccc3O2)c1OCc1ccccc1F (configuration not stated)
i	1.1	c1ccc(-c2csc(-n3cccn3)n2)cc1
i	-1.9	Cc1cc(OCc2cc(C(=O)N3CCCCCC3)no2)cc(C)c1Cl
i	1.6	O=[N+]([O-])c1cccc(S(=O)(=O)Nc2ccc(S(=O)(=O)NCC3CCCO3)cc2)c1 (configuration not stated)
i	-1	Cc1ccccc1C(=O)NNC(=O)c1cccn1C
i	-0.75	CCc1c(C)nc(SCCOc2ccc(OC(C)C)cc2)[nH]c1=O
i	-0.02	COc1ccc(CCN(C)Cc2ccc(C(=O)Nc3ccccc3)cc2)cc1OC
i	1.4	Cc1sc2ncn(CC(=O)N3CCN(c4ccccn4)CC3)c(=O)c2c1S(=O)(=O)N1CCCCC1
i	1.2	CC1(C)Cc2c(C#N)c(N3CCN(C(=O)c4ccco4)CC3)nc(Cc3ccccc3)c2CO1
i	-0.94	Cc1ccc(OCC(=O)N/N=C\c2cccn2C)c([N+](=O)[O-])c1
i	-0.17	COCCNc1c2c(nc3c(-c4ccccc4)c(C)nn13)CCC2
i	0.26	CC(C(=O)N=Nc1c(O)[nH]c2ccccc12)n1cnc2ccccc2c1=O (configuration not stated)
i	-1.7	Cc1ccccc1N1CCN(C2CCCN(C(=O)CCc3c(C)noc3C)C2)CC1 (configuration not stated)

(more compounds)
KCNQ2 inh	KCNQ2 inh baseline	canonical_smiles
i	0.39	COc1cc([N+](=O)[O-])ccc1NC(=O)CCCOc1cccc(C)c1
i	-1.6	C#Cc1ccc([C@H]2C=C(C(=O)Nc3ccccc3)O[C@@H](OCc3ccc(CO)cc3)C2)cc1
i	-0.44	CO/N=C(\C(=O)N[C@@H]1C(=O)N2C(C(=O)O)=C(COC(N)=O)CS[C@H]12)c1ccco1
i	1.4	O=C1C=C(c2ccccc2)C(O)(c2ccccc2)C1 (configuration not stated)
i	-0.26	Cc1ccc2c(c1)C1CC(C)(O2)N(c2cccc(C(=O)NC3CCN(Cc4ccccc4)CC3)c2)C(=O)N1 (configuration not stated)
i	0.02	O=C(Cc1cccc2ccccc12)Nc1ccc(O)cc1C(=O)O
i	1.9	Cc1ccccc1OCC(=O)OC(C(=O)c1ccccc1)c1ccccc1 (configuration not stated)
i	-0.5	Cc1ccc(-c2nnn(CC(=O)N(CCN3CCOCC3)C(C(=O)NC(C)(C)C)c3ccco3)n2)cc1 (configuration not stated)
i	-0.06	COc1cc(C2Sc3ccccc3NC3=C2C(=O)OC3)cc(OC)c1OC (configuration not stated)
i	-0.01	CCOc1ccc(S(=O)(=O)n2nnc3ccccc32)cc1C(C)C
i	0.38	Cc1ccc(S(=O)(=O)N2CCCC(C(=O)NCc3ccc4c(c3)OCO4)C2)cc1 (configuration not stated)
i	-0.03	CCc1ccc(-c2cc(C)no2)cc1S(=O)(=O)N1CCN(c2ccc(F)cc2)CC1
i	0.58	Cc1cc(=O)oc(C)c1C(=O)Nc1cccnc1Cl
i	-0.45	Cc1ccccc1NC(=O)CSc1nnc(-c2ccccc2)n1-c1ccccc1

Sorted by the number under KCNQ2 inh baseline (highest first): 4 from the list above
KCNQ2 inh	KCNQ2 inh baseline	canonical_smiles
i	2.7	O=C1C=C(NC2=CC3OC(c4ccccc4)OCC3OC2=O)CCC1 (configuration not stated)
i	0.98	CC1CCCN(S(=O)(=O)c2ccc(C(=O)Nc3nnc(-c4ccccn4)o3)cc2)C1 (configuration not stated)
i	0.83	COc1ccc(S(=O)(=O)Nc2ncccn2)cc1
i	0.22	COc1cccc(C2NC(=O)c3ccccc3O2)c1OCc1ccccc1F (configuration not stated)

Screens deposited in PubChem by Johns Hopkins Ion Channel Center.
